Arbovirus anti: arbovirus infection inhibition. inhibition, % at 10 µM. arbovirus infection cell-based antiviral screen. AID 1251. 0.37% of 200,000 active;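 active = inhibition from about 30%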;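 also: bluetongue infection of BSR cells; cell survival read as ATP light after 72 h; 0% = infected wells without compound and 100% = uninfected wells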
YopH inh: inhibitors of Yersinia enterocolitica YopH tyrosine phosphatase; fluorescence Ex485/Em525; inhibition, %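 (about 10 µM by stock and volumes)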; 0.16% of 140,000 active; AID 898;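 active = inhibition of 50% or more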;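 also: controls were vehicle for no effect and minimum signal wells for full effect; inactives centre near -20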
Mtb betalactam: beta-lactam sensitization of Mtb H37Rv; M. tuberculosis H37Rv growth with meropenem, percent inhibition; hits of this screen are not shown here; inhibition, % at 25 µM; 0.27% of 330,000 active;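 active = about 74% or more and at least 40 points above the plate without the antibiotic, then above 30% in a dose series; inconclusive = first-round hits that could not be retested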;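 also: growth measured after seven days incubation then overnight dye step; 0% = bacteria only wells and 100% = bacteria with antibiotic; twin plates without the antibiotic show which effects depend on it; some results filed as inactive read as strong as hits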
RecA splice inh: blocks M. tuberculosis RecA intein splicing | 0.75% of 290,000 active | P9WHJ3 | inhibition, %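 (about 9 µM by stock and volumes)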 | cell-free RecA intein splicing, fluorescence; in the data active = inhibition above about 30%; inconclusive = no clear call, values can overlap the other calls;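 also: 0% = vehicle wells and 100% = reference inhibitor control wells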
Target sequence (P9WHJ3 whole entry, looked up, canonical isoform): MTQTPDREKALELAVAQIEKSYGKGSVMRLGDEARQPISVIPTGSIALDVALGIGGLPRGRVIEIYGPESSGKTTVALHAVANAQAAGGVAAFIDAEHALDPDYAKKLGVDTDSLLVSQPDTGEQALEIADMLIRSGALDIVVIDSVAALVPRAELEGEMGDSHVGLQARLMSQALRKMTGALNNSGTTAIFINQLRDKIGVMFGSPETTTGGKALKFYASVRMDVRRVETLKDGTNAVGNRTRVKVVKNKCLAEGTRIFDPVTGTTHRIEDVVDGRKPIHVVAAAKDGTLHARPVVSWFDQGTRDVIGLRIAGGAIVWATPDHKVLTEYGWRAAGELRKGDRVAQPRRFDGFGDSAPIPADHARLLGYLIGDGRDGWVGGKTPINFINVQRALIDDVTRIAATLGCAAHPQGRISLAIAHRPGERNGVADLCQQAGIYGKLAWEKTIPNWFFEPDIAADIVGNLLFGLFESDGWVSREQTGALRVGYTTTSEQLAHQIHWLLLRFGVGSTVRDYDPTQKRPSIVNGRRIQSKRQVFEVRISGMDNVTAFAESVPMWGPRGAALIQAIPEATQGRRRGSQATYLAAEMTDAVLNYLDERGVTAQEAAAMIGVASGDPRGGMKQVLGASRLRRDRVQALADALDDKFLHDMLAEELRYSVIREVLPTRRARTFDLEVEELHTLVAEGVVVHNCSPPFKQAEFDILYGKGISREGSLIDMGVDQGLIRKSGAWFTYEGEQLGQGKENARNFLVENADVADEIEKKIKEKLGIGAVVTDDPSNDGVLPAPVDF
Mtb growth: M. tuberculosis H37Rv growth inhibitors, H37Rv strain (AID 1626) | M. tuberculosis H37Rv growth inhibition; higher % means a stronger effect | one-dose inhibition, % at 10 µM; IC50 in µM for titrated hits | 0.95% of 220,000 active;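 active = confirmed in a dose series; inconclusive = inhibition above 80% but not taken into the dose series; inactive = below 80% or under 30% at every dose of the series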;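 also: bacteria incubated seven days before Alamar blue readout; 0% = bacteria only wells and 100% = bacteria with antibiotic wells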
Arbovirus anti repeat: also measured in Arbovirus anti; calls as there; inhibition, %; measured here: 10K subset replicate screen; many hits read low in the repeat;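 first of two repeat runs on a subset; 0% = infected and 100% = uninfected wells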
* hit, by the source's call; u = inconclusive; x = no result given.

Start of the data: the first three entries, ahead of the listing:
SMILES | Arbovirus anti | YopH inh | Mtb betalactam | RecA splice inh | Mtb growth | others
CC(=O)c1c(C)[nH]c(C(=O)Nc2cccc(C(F)(F)F)c2)c1C | x | x | -0.5 | 1.9 | x
CC(C)c1ccccc1NC1=CC(=O)CC(C)(C)C1 | -0.1 | -46.9 | 2.9 | 0.3 | -3.1%
CCOCC(=O)Nc1nnc(Cc2ccc(OC)c(OC)c2)s1 | 5.7 | -23.1 | -8.0 | -1.1 | 6.9%

Results, from the first entry:
SMILES | Arbovirus anti | YopH inh | Mtb betalactam | RecA splice inh | Mtb growth | others
CC(=O)c1c(C)[nH]c(C(=O)Nc2cccc(C(F)(F)F)c2)c1C | x | x | -0.5 | 1.9 | x
CC(C)c1ccccc1NC1=CC(=O)CC(C)(C)C1 | -0.1 | -46.9 | 2.9 | 0.3 | -3.1%
CCOCC(=O)Nc1nnc(Cc2ccc(OC)c(OC)c2)s1 | 5.7 | -23.1 | -8.0 | -1.1 | 6.9%
CCN(CC)C(=O)N1CCN(S(=O)(=O)c2c(C)cc(C)cc2C)CC1 | 4.1 | x | -0.3 | 1.3 | -8.8%
O=C(c1ccccc1)c1cn[nH]c1-c1ccccc1O | 3.4 | -13.7 | 12.3 | -1.9 | 1.8%
COCCNC(=O)c1ccccc1NC(=O)C1COc2ccccc2O1 (centres undefined) | 1.5 | -32.5 | 2.3 | 1.9 | -0.9% | Arbovirus anti repeat=6.1
C=CCN=C1N[C@@H](c2ccccc2)C(C(=O)OC)=C(C)N1CC | x | x | -10.4 | -1.8 | x
COc1ccc(SC[C@H](Cc2ccccc2)N2CCN(CCc3ccccc3)CCC2=O)cc1 | x | x | 93.9 | 17.1 | 37.6%
COc1ccccc1N1CCN(Cc2ccsc2)CC1 | -2.2 | -21.7 | -14.0 | 0.7 | -3.1%
CCc1ccc(C2C(C#N)=C(N)Oc3n[nH]c(CC(=O)OC)c32)cc1 (centres undefined) | 5.9 | -7.5 | -14.8 | 63.8* | -8.8%
O=c1c2c3nc4ccccc4nc3n(/N=C/c3ccncc3)c2ncn1-c1ccccc1 | x | x | 5.4 | -1.3 | 2.8%
CC(C)C1N=C2c3ccccc3N=C(SCc3cc(=O)n4cc(Cl)ccc4n3)N2C1=O (centres undefined) | -1.9 | -46.6 | 87.6 | 1.6 | -7.3%
COc1ccc(S(=O)(=O)Nc2cc3c4c(c2)CCN4C(=O)CC3)cc1C | x | x | -1.1 | -1.6 | x
O=[N+]([O-])c1ccc2c(c1N1CCCCC1)=NC1(CCCCC1)[N+]=2[O-] | x | x | -1.1 | 2.5 | -2.7%
CC1Cc2ccccc2N1C(=O)CCn1c(=O)oc2ccccc21 (centres undefined) | 6.0 | -25.5 | 3.6 | -3.7 | -4.0%
Cc1cc(C)nc(NS(=O)(=O)c2ccc(NC(=O)c3snnc3C)cc2)n1 | x | x | -1.2 | -2.4 | x
CCOc1ncccc1C(=O)OCC(=O)Nc1ncc(C(F)(F)F)cc1Cl | 12.0 | -17.9 | -3.8 | -0.2 | 0.6%
CNC(=S)N/N=C/C1=CCC2CC1C2(C)C (centres undefined) | -3.6 | -25.7 | -2.1 | 2.3 | 9.1%
Cc1cc(C)c(S(=O)(=O)N2CCOCC2)cc1NS(=O)(=O)c1cc(OCC(N)=O)c(C)cc1Cl | -1.0 | x | -0.5 | -2.5 | 4.6%
CN(CCN1CCc2ccccc2C1)Cc1nc(-c2ccc3c(c2)OCO3)no1 | -6.3 | x | 51.2 | 0.6 | 60.2%
CC(Oc1ccccc1)C(=O)N1CCN(c2ccc(N3CCOCC3)nn2)CC1 (centres undefined) | x | x | -3.0 | -7.9 | x
COc1ccc(OC)c(NC(=O)c2nnn(CCc3ccccc3)c2N)c1 | -2.2 | -41.1 | -5.8 | -1.3 | 4.9% | Arbovirus anti repeat=-7.1
CCCNC(=O)c1ccc(-c2nc3ccccc3s2)s1 | 2.4 | -11.5 | 51.2 | -5.8 | x
CN1CCN(C2=Cc3ccccc3Sc3cc(F)c(Cl)cc32)CC1 | -37.2 | -1.5 | 99.7 | 15.3 | 11.6µM*
CCn1c(O)c(/C=C2\C=Nc3ccccc32)sc1=O | 2.4 | x | 0.0 | 0.6 | 4.9%
CCN1C(=O)C(c2ccc(O)cc2)(c2ccc(O)cc2)c2ccccc21 | -8.9 | x | 0.9 | 14.8 | -0.9%
Nc1cc(C(=O)OCC(=O)NNC(=O)c2ccccc2)ccc1Cl | x | x | 1.5 | -7.4 | x
O=C(Cc1cc(=O)[nH][nH]1)N/N=C/c1c(F)cccc1Cl | -1.8 | x | -3.5 | 95.2* | 1.4%
CSc1ccc(CN2CCC(n3nccc3NC(=O)CCCc3ccccc3)CC2)cc1 | x | x | 65.2 | -10.3 | x
O=C(NCc1ccco1)c1cccc(NS(=O)(=O)c2ccccc2F)c1 | -1.8 | -20.9 | 2.7 | -0.4 | -0.3%
Cc1cc(N=Cc2cc(Cl)ccc2O)no1 | 5.6 | -24.6 | -1.9 | -4.6 | 2.1%
CCOc1cc(CNC2CCCC2)cc(Cl)c1OCc1ccc(F)cc1 | -52.1 | -6.0 | 4.2 | -0.7 | 0.2%
COc1ccc([C@@H]2[C@@H]3C(=O)N(C(C)(C)C)C(=O)[C@@H]3[C@]3(Cc4ccccc4)C(=O)N(c4cccc(C)c4)C(=O)N23)cc1 | x | x | -1.6 | -2.0 | x
COc1ccccc1CNC(=O)c1c(N)n(CCCN2CCOCC2)c2nc3ccccc3nc12 | -43.4 | -12.3 | x | -83.3 | x
O=C1Nc2ccccc2N=C(c2ccccc2)c2ccccc21 | x | x | 6.3 | 5.1 | 8.2%
CC(NCc1cccc(OCc2ccccc2)c1)C(O)c1ccccc1 (centres undefined) | -19.4 | x | 98.5 | 0.3 | 45.2%

By substructure: the compounds so far containing a CF3 group (2)
SMILES | Arbovirus anti | YopH inh | Mtb betalactam | RecA splice inh | Mtb growth | others
CC(=O)c1c(C)[nH]c(C(=O)Nc2cccc(C(F)(F)F)c2)c1C | x | x | -0.5 | 1.9 | x
CCOc1ncccc1C(=O)OCC(=O)Nc1ncc(C(F)(F)F)cc1Cl | 12.0 | -17.9 | -3.8 | -0.2 | 0.6%

The list goes on:
SMILES | Arbovirus anti | YopH inh | Mtb betalactam | RecA splice inh | Mtb growth | others
S=c1[nH]nc(Nc2cccc3ccccc23)s1 | x | x | -5.5 | 1.6 | x
O=C(Cn1c(=O)oc2ccccc21)Nc1nc(-c2ccc(Br)cc2)cs1 | 3.2 | -24.1 | 5.8 | -1.5 | -3.0%
CCOC(=O)C1(CC)NC(c2ccc(OC)c(OC)c2)C2C(=O)N(c3cccc(C(C)=O)c3)C(=O)C21 (centres undefined) | x | x | 1.1 | -1.5 | x
O=C(CN1CCN(S(=O)(=O)c2ccccc2)CC1)NC(=O)NC1CCCCC1 | -2.0 | -22.8 | u | -10.2 | -10.0%
Cc1ccc(NC(=O)c2c(C)nc(Nc3nc4ccccc4o3)nc2C)cc1 | -1.3 | -12.8 | -1.4 | 8.4 | -4.2%
COc1ccccc1NC(=O)N(CCCN1CCOCC1)Cc1cc2cc3c(cc2[nH]c1=O)OCO3 | x | x | -7.0 | -2.0 | 2.4%
CC(C)NCC(O)COc1ccc(CC(N)=O)cc1 (centres undefined) | -2.9 | -14.9 | -2.4 | -1.2 | -3.0%
O=C(COCc1cc(-c2ccc3c(c2)OCO3)on1)N1CCN(c2ccc(F)cc2)CC1 | x | x | u | -0.2 | x
CC1=CC(C)(C)N(C(=O)CCl)c2cc(C)ccc21 | -11.2 | x | 61.5 | 1.6 | -7.8%
Cc1ccnc2nc(C(=O)Nc3ccc(N4CCOCC4)cc3)nn12 | -9.6 | -12.8 | -1.1 | 0.9 | -8.7%
CCN(CC)CCNC(=O)c1ccc2c(c1NCCO)C(=O)c1ccccc1C2=O | x | x | 28.0 | 78.4* | -4.3%
CN1CCN(c2ccc(S(=O)(=O)N3CCCCC3)cc2NC(=O)c2ccc(F)cc2F)CC1 | -12.0 | -7.9 | -2.9 | -0.7 | 3.7%
Nn1c(SCc2ccccc2)nnc1C1CCCCC1 | x | x | -1.7 | -0.5 | -6.5%
CN(CC(=O)Nc1ccccc1Br)C(=O)c1ccc(COc2ccccc2)cc1 | x | x | 8.2 | 4.3 | x
CCO/C=N/Nc1nc(C(F)(F)F)nc2c1cnn2Cc1ccccc1 | x | x | 28.6 | 0.9 | x
CCn1c(SCc2nc3ccccc3c(=O)[nH]2)nnc1-c1cccnc1 | 3.2 | -22.6 | -1.1 | -0.2 | -3.1%
COc1ccc(-n2nnnc2SC(C)C(=O)NCC(=O)Nc2ccc(F)c(F)c2F)cc1 (centres undefined) | -3.6 | -13.7 | -1.1 | -2.4 | -1.6%
CC(=O)Nc1ccc2nc(NC(=O)CCc3ccccc3)sc2c1 | 14.3 | x | 1.3 | -2.2 | -1.2%
C/C(CC(=O)Nc1cccc(Br)c1)=N\NC(=O)c1ccc(O)cc1O | x | x | 2.8 | -1.7 | x
O=C(C[n+]1cccc(Br)c1)c1ccccc1 | x | x | 7.1 | 1.0 | x
COc1cc(/C=C(\C#N)C(=O)Nc2ccccc2F)ccc1OCCN1CCOCC1 | x | x | 4.0 | -0.9 | x
COC(=O)CNC(=O)CN1c2cccc3cccc(c23)S1(=O)=O | -3.4 | 7.4 | -8.8 | 1.6 | -3.6%
COCC(=O)N/N=C\c1cccc(OC)c1OC/C=C/c1ccccc1 | x | x | 12.0 | 0.5 | x
O=C(Nc1ccc(CN2CCOCC2)cc1)c1cc2ccccn2n1 | 10.8 | -20.8 | -0.5 | -0.3 | 1.7% | Arbovirus anti repeat=-1.8
COc1ccc(CNC(=O)c2cccnc2Sc2ccc(Cl)cc2)cc1 | -7.5 | -40.2 | 6.2 | 1.1 | -0.3%
Cc1cc(SCCC(=O)O)nc2ccccc12 | x | -28.0 | 5.9 | -4.5 | 3.5%
NC(=O)CC(NC(=O)Cc1ccc(Br)cc1)c1ccc(NCCOc2ccccc2)c([N+](=O)[O-])c1 (centres undefined) | x | x | 1.9 | -1.0 | -0.9%
COC(=O)c1ccc(COc2ccccc2/C=N/NC(N)=O)o1 | x | x | -13.5 | -1.7 | 3.0%
CCOc1ccc(Cl)cc1S(=O)(=O)n1nnc2ccccc21 | 5.0 | -23.7 | -1.7 | 0.0 | -0.3%
O=C(CN1CCCCC1)NCC1(c2ccccc2)CCCC1 | -0.2 | x | -3.3 | -0.2 | -3.7%
O=C1CC(c2cccc([N+](=O)[O-])c2)c2cc3c(cc2N1)CCC3 (centres undefined) | -0.8 | x | -6.9 | -1.2 | 6.5%
CC1(C)CC(=O)c2cc(C(=O)NNc3ccccc3)c(=O)n(-c3ccccc3)c2C1 | -21.5 | x | 2.6 | -2.4 | u
Cc1ccc(Oc2cc(N3CCOCC3)nc(-c3ccccc3)n2)cc1 | 3.7 | -14.2 | -8.6 | x | 4.1%
COCCN(Cc1nc(C2(c3ccc(C)cc3)CCCC2)no1)C(C)C | 6.7 | x | -3.6 | 0.1 | 7.8%
O=C(c1ccccc1[N+](=O)[O-])n1cnc2ccccc21 | 9.3 | x | -1.1 | -4.1 | -4.8%
Cc1nnc(SCC(=O)Nc2ccc(N3CCOCC3)cc2)o1 | 8.8 | 3.1 | -8.8 | 1.5 | -5.0%
c1ccc(-c2cn3nc(-c4ccccc4)cnc3n2)cc1 | -9.2 | -10.7 | -1.4 | x | -2.1%
Cc1ccc(C2=NOC(C)(c3nnc(-c4ccncc4)o3)C2)cc1 (centres undefined) | x | x | -3.3 | -1.1 | -6.0%
CC(C)(C)NC(=O)C(c1ccsc1)N(CCc1ccccc1)C(=O)Cn1nnc2ccccc21 (centres undefined) | -5.9 | -4.2 | -5.4 | -1.0 | -11.1%
CN=C(c1ccccc1)c1c(C)cccc1C | 3.4 | -34.1 | -1.0 | -1.3 | 1.9%
CSc1ccc(N=Nc2c(C)[nH]n(C)c2=O)cc1 | x | x | 90.6 | 8.9 | 7.43µM*
CCn1c(Cc2ccc(OC)cc2)nnc1SCC(=O)N1CCN(c2ccccc2)CC1 | -0.3 | -7.6 | -11.7 | 2.8 | x
C#CCOCCOCCOCCNc1nc(N2CCOCC2)nc(N2CCN(C(=O)[C@H](Cc3cc4ccccc4[nH]3)n3cc([C@@H](N)CC(C)C)nn3)CC2)n1 | 4.4 | x | -1.7 | -1.6 | -3.4%
N#CCC(=O)c1sccc1-n1cccc1 | 3.7 | x | 0.5 | 11.7 | 1.3%
O=C(CSc1nnc(Nc2ccccc2)s1)Nc1cccc(S(=O)(=O)N2CCCCC2)c1 | 7.5 | -28.9 | 2.2 | 14.2 | 3.4%

Screening results: PubChem BioAssay, several laboratories

This is a subset (hit frequency here may not be typical).
